RN4220 kill = kills Staphylococcus aureus RN4220 | S. aureus RN4220 growth, OD600, 16 h | inhibition, % (test concentration not listed) | actives 0.33% (n = 330,000);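 active means z-score of -3 or lower and OD600 up to 0.18 on both plates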;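 further: plate controls were untreated cells for no effect and reference antibiotic for full effect; stock transfer was 100 nL into about 80 µL; one replicate is shown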
BJeLR viability = BJeLR cell viability loss | actives 0.17% (n = 300,000) | BJeLR (HRASV12) viability, CellTiter-Glo ATP luminescence, 48 h; reference of the scale not given here | inhibition, % (concentration not given with the values);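 active means replicate mean above 50%; inconclusive means above 50% but judged a plate artefact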;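 further: 50 nL library stock added to about 25 µL; numbers are from one replicate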
Mtb hypoxia rep = inhibitors of hypoxia-regulated fluorescent reporter in Mycobacterium tuberculosis; AID 1159583; M. tuberculosis hypoxia-regulated fluorescent reporter, fluorescence; actives 0.1% (n = 300,000); fluorescence inhibition, % (no concentration beside the values);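 active means 35 to 45% if threefold the growth effect, above 45% if 1.5-fold the growth effect; inactive means the rest, general growth blockers included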;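 further: wells of about 50 µL received 100 nL stock; 0% = vehicle wells and 100% = reference inhibitor wells; whole bacteria with a GFP reporter of the hypoxia response; strong numbers were not always called active; many hits fall short of the cut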
Autofluor counter = compound fluorescence in toxin protease inhibitor counterscreen; compound autofluorescence counterscreen, microsphere flow cytometry; active compounds read high; fluorescence intensity (test concentration not listed); actives 3.1% (n = 360,000); AID 624483;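 active means at least 3 SD above the mean of all compounds, about 16000 in these data; inconclusive means too few beads counted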;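 further: 100 nL of 1 mM stock went into each well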
PrP UTR inh = suppresses PrP 5' UTR mRNA reporter expression; cell-based PrP 5' UTR mRNA reporter, plate reader; inhibition, % (concentration not given with the values); actives 0.35% (n = 340,000); AID 488862;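 active means every replicate at 50% or more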;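 further: 0 = median of the neutral control wells; tested in H4 reporter cells; numbers are from one replicate; inactives centre near -14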
Sa ugtP lethal = growth inhibition of S. aureus ugtP deletion strain | S. aureus RN4220 ugtP deletion, OD600 growth, 16 h; some inactives read as strong as hits | growth inhibition, % (no concentration beside the values) | actives 0.54% (n = 330,000) | AID 1259309;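 active means z-score under -3 and OD600 up to 0.15 on both plates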;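 further: plate controls were untreated wells for no effect and antibiotic for full effect; wells of about 80 µL received 100 nL stock; the first replicate is given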
Mtb hypoxia rep growth = further read-out of Mtb hypoxia rep, marked with its call; growth inhibition, %; measured here: M. tuberculosis growth (absorbance);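 0% = vehicle and 100% = reference antibiotic; read after six days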
The depositor's hits bear a star; ? = inconclusive; . = no result given; & = joins results of further samples. Random draw from the library. Share with any hit: about 4.1%.

SMILES | RN4220 kill | BJeLR viability | Mtb hypoxia rep | Mtb hypoxia rep growth | Autofluor counter | PrP UTR inh | Sa ugtP lethal
COc1ccc(NC(=O)CN(C)CC(=O)NCCc2ccc(F)cc2)cc1 | 4.3 | . | 6 | -8 | . | -4 | 10
CC(Oc1ccc(Br)cc1)C(=O)NC1CCN(Cc2ccccc2)CC1 (stereo not given) | 1.4 | 2 | 17 | 3 | 7832 | -7 | 0
Cc1cccc(CS(=O)(=O)c2ncc(Cl)c(C(=O)Nc3c(C)cccc3C)n2)c1 | . | 31 | . | . | 5315 | -5 | .
CN(C)c1ccccc1C(=O)N1CCCC(Nc2ccc(F)cc2)C1 (stereo not given) | 2.0 | 2 | -10 | -1 | 5712 | 2 | 1
O=c1cc(Cl)[nH]c(=O)n1Cc1ccc(F)cc1 | 2.7 | -1 | -9 | 5 | 6029 | -25 | 7
CC1CCN(C2=C(NS(=O)(=O)c3ccc(Cl)cc3)C(=O)c3ccccc3C2=O)CC1 | 3.4 | 14 | 8 | 10 | 2693 | -19 | -29
COc1ccc(NC(=O)CCC(=O)N/N=C/c2cccnc2)cc1 | . | -1 | . | . | 4422 | 0 | .
Cc1ccc(NC(=O)COc2coc(CN3CCc4ccccc43)cc2=O)c(C)c1 | -0.8 | 1 | -7 | -1 | . | -23 | 3
O=C(NCc1ccco1)C12CC3CC(CC(C3)C1)C2 | 17 | 7 | . | . | 2741 | -2 | 1
CC(=NN=C(c1ccccc1)c1ccccc1)c1ccco1 | 7.8 | . | 15 | 1 | . | . | 7
COC(=O)c1ccc(COc2ccccc2/C=C(\C#N)C(=O)Nc2ccc(C)cc2C)cc1 | . | -7 | . | . | 2552 | -15 | .
O=[N+]([O-])c1cc(NCCO)c(N2CCCCCC2)c2nonc12 | 3.5 | -16 | 1 | 6 | 3574 | -12 | 5
CC(=O)c1ccc(Oc2ccc(C(C)=O)cc2)cc1 | 6.3 | -4 | -4 | 7 | 4509 | -43 | 2
Cc1ccc(NS(=O)(=O)c2ccc(C)c(C(=O)N3CCN(C)CC3)c2)cc1 | 6.5 | -14 | 1 | -2 | 3248 | -25 | 1
CC(=O)N1CCN(c2ccc(Oc3nc(-c4ccccc4)nc4ccccc34)cc2)CC1 | 1.9 | . | 18 | 15 | 4139 | -27 | 5
CCCn1c(N)c(N(CCOC)C(=O)C2CCCC2)c(=O)[nH]c1=O | 4.1 | . | 10 | 3 | 2806 | -29 | 8
CCC(CNC(=O)c1c(C)nn(-c2ccccc2)c1Cl)c1ccccc1 (stereo not given) | 11 | -12 | 1 | -1 | 3803 | 2 | 34
Cc1ccccc1C1C(C#N)=C2NC(=O)c3c(sc4c3CCCCC4)N2C2=C1C(=O)CC(C)(C)C2 (stereo not given) | -3.5 | -5 | -89 | -9 | . | . | -9
Cc1ccc(S(=O)(=O)CCC(=O)N(Cc2nnc(-c3ccc(Cl)cc3)o2)C2CC2)cc1 | 4.0 | . | 12 | 0 | 5112 | -29 | 0
CSCCC(C)N1CCC(Oc2ccc(C(=O)N3CCCC3)cc2)CC1 (stereo not given) | 1.6 | -4 | 4 | 2 | 5575 | -9 | 1
COc1ccc(OC)c(-c2csc(NC(=O)COC(=O)c3ccc(NC(=O)CC#N)cc3)n2)c1 | 3.6 | . | -3 | 1 | 5981 | -24 | -16
CCOC(=O)CC(NS(=O)(=O)c1ccc(NC(C)=O)cc1)c1ccc(OCC)cc1 (stereo not given) | 2.4 | -1 | 15 | 7 | 3541 | -26 | 21
O=C(NNC(=O)C1CCN(S(=O)(=O)c2ccc(Cl)cc2)CC1)c1ccc(Cl)cc1 | 1.8 | -5 | 19 | 3 | ? | 8 | -1
Cc1ccsc1C(=O)C1CCCN(Cc2sc(N(C)C)nc2Cl)C1 (stereo not given) | 2.5 | 11 | 8 | 9 | 2827 | -15 | 1
C=CCC(CC(=O)NC(CO)Cc1ccccc1)C(=O)NC(COC(=O)C(CC=C)Cc1ccc(F)cc1)C(C)(C)C (stereo not given) | -0.5&1.2 | . | -1&11 | 5&9 | . | . | 2&-12

Ordered by SMILES length (lowest first): 11 of the compounds above
SMILES | RN4220 kill | BJeLR viability | Mtb hypoxia rep | Mtb hypoxia rep growth | Autofluor counter | PrP UTR inh | Sa ugtP lethal
CC(=O)c1ccc(Oc2ccc(C(C)=O)cc2)cc1 | 6.3 | -4 | -4 | 7 | 4509 | -43 | 2
O=C(NCc1ccco1)C12CC3CC(CC(C3)C1)C2 | 17 | 7 | . | . | 2741 | -2 | 1
COc1ccc(NC(=O)CCC(=O)N/N=C/c2cccnc2)cc1 | . | -1 | . | . | 4422 | 0 | .
Cc1ccsc1C(=O)C1CCCN(Cc2sc(N(C)C)nc2Cl)C1 (stereo not given) | 2.5 | 11 | 8 | 9 | 2827 | -15 | 1
CCCn1c(N)c(N(CCOC)C(=O)C2CCCC2)c(=O)[nH]c1=O | 4.1 | . | 10 | 3 | 2806 | -29 | 8
CCOC(=O)CC(NS(=O)(=O)c1ccc(NC(C)=O)cc1)c1ccc(OCC)cc1 (stereo not given) | 2.4 | -1 | 15 | 7 | 3541 | -26 | 21
Cc1cccc(CS(=O)(=O)c2ncc(Cl)c(C(=O)Nc3c(C)cccc3C)n2)c1 | . | 31 | . | . | 5315 | -5 | .
COC(=O)c1ccc(COc2ccccc2/C=C(\C#N)C(=O)Nc2ccc(C)cc2C)cc1 | . | -7 | . | . | 2552 | -15 | .
Cc1ccc(S(=O)(=O)CCC(=O)N(Cc2nnc(-c3ccc(Cl)cc3)o2)C2CC2)cc1 | 4.0 | . | 12 | 0 | 5112 | -29 | 0
COc1ccc(OC)c(-c2csc(NC(=O)COC(=O)c3ccc(NC(=O)CC#N)cc3)n2)c1 | 3.6 | . | -3 | 1 | 5981 | -24 | -16
C=CCC(CC(=O)NC(CO)Cc1ccccc1)C(=O)NC(COC(=O)C(CC=C)Cc1ccc(F)cc1)C(C)(C)C (stereo not given) | -0.5&1.2 | . | -1&11 | 5&9 | . | . | 2&-12

(more compounds)
SMILES | RN4220 kill | BJeLR viability | Mtb hypoxia rep | Mtb hypoxia rep growth | Autofluor counter | PrP UTR inh | Sa ugtP lethal
CCOC(=O)c1cc2c(OC)ccc(OC)c2n1CC(=O)c1ccccc1 | 3.3 | 10 | 8 | -2 | 2852 | -6 | 89*
O=C(NNC(=O)c1cc2ccccc2oc1=O)c1ccccc1 | 6.7 | -6 | -3 | -6 | 3305 | -46 | 8
O=C(Nc1ccccc1Cl)O/N=C/c1ccncc1 | . | 9 | . | . | 8049 | -13 | .
Cc1c(-c2ccc(Br)cc2)[n+](=O)c2c(n1[O-])CCCCC2 | 5.6 | 1 | -7 | 2 | . | -17 | 16
Cc1cccc(N2C(=O)N3[C@H](c4ccc(Cl)cc4)[C@@H]4C(=O)N(C5CCCCC5)C(=O)[C@@H]4[C@]3(Cc3ccc(Cl)cc3)C2=O)c1 | . | 15 | . | . | 4472 | -10 | .
COC(=O)C1=C(C(=O)OC)C2N(Cc3ccccc3)c3ccccc3[C@@]23CC(C(=O)OC)N(C(=O)CC(C)C)C3=N1 (stereo not given in full) | -2.2 | . | 9 | -1 | . | . | 1
CN(C)c1ccc(-c2nnn(CC(=O)Nc3ccccc3N3CCOCC3)n2)cc1 | 5.5 | 2 | 6 | 9 | 8942 | -1 | 3
NC(=O)Cc1ccc(C(=O)c2ccc(F)cc2)s1 | 3.5 | 1 | 4 | 5 | 4645 | -7 | 4
CCn1c(SCC(=O)N2CCC(C)CC2)nc2c(c1=O)SCC2 | 2.1 | -10 | 12 | -2 | 4742 | -4 | 10
Cc1ccc(S(=O)(=O)NCCN2CCNC2=O)cc1 | 0.6 | 1 | 2 | 3 | . | -10 | 5
Cc1cccc2sc(NC(=O)[C@@H]3CCCN3C(=O)c3cccs3)nc12 | 0.4 | 0 | 6 | 2 | 2457 | -13 | 1
O=C(COC(=O)c1cncc(Br)c1)Nc1nc(-c2ccc(F)cc2)cs1 | 6.4 | 3 | 5 | 3 | 5043 | -20 | 11
CN(C)S(=O)(=O)c1cccc(NC(=S)Nc2ccc3cn[nH]c3c2)c1 | 1.8 | -8 | -1 | 10 | 4493 | -32 | 14
COc1ccc(CC(=O)Nc2ccccc2N2CCOCC2)cc1OC | 3.9 | 9 | 17 | 1 | 3445 | -8 | 8
CCOc1ccccc1NC(=O)CSc1nnc(CNC(=O)c2cccs2)o1 | 0.8 | -9 | 3 | -4 | 4565 | 3 | 5
COC(=O)c1sc(C(F)(F)F)c(-c2ccccc2)c1S(=O)(=O)N1CCCC1 | 13 | 4 | 17 | 5 | 4380 | -5 | 20
Cn1c(SCC(=O)N2CCOCC2)nc2sc3c(c2c1=O)CCCC3 | 6.6 | -3 | -1 | 22 | 5565 | -10 | -14
CC(=O)c1ccc(NC(=O)CN2CCC(C(=O)c3ccc4c(c3)OCCO4)CC2)cc1 | 5.7 | -5 | 7 | 12 | 3948 | -15 | -11
Cc1ccc(NC(=O)CN2C(=O)S/C(=C\C(=O)Nc3ccc(Cl)cc3)C2=O)cc1 | -0.2 | -3 | -6 | 1 | 2470 | -21 | -4
Cc1cc(C)n2nc(C(=O)NCc3ccco3)cc2n1 | 4.2 | 0 | 8 | 1 | ? | -8 | 19
O=C(CCC(=O)Nc1ccccc1)N/N=C/c1ccco1 | . | -1 | . | . | 10918 | -22 | .
COC(=O)c1cc(COC(=O)CNC(=O)c2cccc(C)c2)oc1C | 7.0 | . | 1 | 2 | 8445 | -19 | 8
COc1ccccc1N1CCN(CC(=O)NCc2ccc(Cl)cc2)CC1 | 3.9 | 17 | 4 | -4 | 3715 | -12 | 12
CN(Cc1ccc(OCC(O)CN(C)Cc2ccccc2)cc1)Cc1nccn1C (stereo not given) | 1.4 | 11 | 11 | -3 | 4612 | -19 | 9
Cc1ccc(C(C(=O)NCC2CCCO2)N(C(=O)c2snc(C(N)=O)c2N)c2ccc(F)cc2)o1 (stereo not given) | 0.0 | 5 | 1 | 2 | 6091 | -4 | 3

More results follow.
SMILES | RN4220 kill | BJeLR viability | Mtb hypoxia rep | Mtb hypoxia rep growth | Autofluor counter | PrP UTR inh | Sa ugtP lethal
CCCCNC(=O)/C(C#N)=C/c1ccc(C(=O)OC)cc1 | 6.6 | 6 | 1 | 0 | 4714 | -23 | -9
COc1cccc(NC(=O)CSc2c3c(nc4ccccc24)CCCC3)c1 | -0.3 | 1 | 13 | 9 | 2258 | -54 | -1
CCOc1ccc(/C=C/C(O)=C2/C(=O)N(C)C3(C)CC2c2ccccc2O3)cc1OC (stereo not given) | -0.9 | 36 | 4 | 10 | 5297 | 5 | 3
CCc1ccccc1NC(=O)c1sc2nc(C)cc(C)c2c1N | 8.7 | 2 | 12 | 11 | 2939 | 1 | 13
CC(=O)Oc1ccc(C(=O)Nc2cccc(C(=O)c3cccc(NC(=O)c4ccc(OC(C)=O)cc4)c3)c2)cc1 | 0.0 | 5 | 16 | 7 | 2226 | -7 | -10
CCC1=NN(C(=O)c2ccc(C)cc2)C(O)(c2ccc(Br)cc2)C1 (stereo not given) | 0.3 | 1 | 4 | 2 | 10477 | -15 | -7
CC(C)[C@H](NC(N)=O)C(=O)Nc1cccc(S(=O)(=O)NC2=NCCCCC2)c1 | 1.5 | . | 14 | -1 | 5056 | -10 | 3
Cc1cc(=O)oc2cc(OCC(=O)NN=Cc3cc([N+](=O)[O-])ccc3O)ccc12 | 24 | . | 5 | 4 | . | . | -18
CCN(CC)C(=O)c1ccc(NC(=O)C2=C(C)OCCS2)cc1 | -0.5 | 2 | -9 | 2 | 3908 | -2 | -1
CCOC(=O)N1CCN(C(=O)CSCC(=O)Nc2nc(-c3ccc(-c4ccccc4)cc3)cs2)CC1 | -3.7 | -4 | 6 | 1 | 6044 | -65 | 3
Cc1ccccc1CNS(=O)(=O)c1ccc2c(c1)OCCO2 | 7.0 | 7 | -4 | 0 | 8083 | -26 | 9
CC(C)c1ccc(NC(=O)CN2C(=O)NC(Cc3c[nH]c4ccccc34)C2=O)cc1 (stereo not given) | 3.7 | . | 7 | 3 | 3647 | -33 | -1
COC(=O)c1sccc1NC(=O)CSc1cccc(Cl)c1Cl | -3.9 | -3 | . | . | 2665 | -59 | 1
S=C(NCc1ccncc1)Nc1ccc(Br)cc1 | -5.4 | -2 | -1 | 10 | 3885 | -5 | 9
Cc1ccc(NC(=O)Cc2noc3ccccc23)cc1 | 5.6 | 13 | -5 | 0 | 5464 | -76 | -7

Taken from above.
`CC(Oc1ccc(Br)cc1)C(=O)NC1CCN(Cc2ccccc2)CC1` (stereo not given) in PrP UTR inh → -7
`COc1cccc(NC(=O)CSc2c3c(nc4ccccc24)CCCC3)c1` in Mtb hypoxia rep growth → 9
